HCMV NEC inh: disrupts HCMV UL50-UL53 complex binding | HTRF UL50-UL53 interaction, normalized percent inhibition | inhibition, % (test concentration not listed) | 190,000 compounds, 0.15% hits;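 active means both replicates at 50% or more, plus weaker picks with an unusually low signal ratio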;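 further: stock transfer was 100 nL into about 20 µL; 0% = negative control wells and 100% = wells with untagged competitor protein; inactives centre near -12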
Starred values were filed as active, the others as inactive; & = joins results of further samples. Only part of the results is shown, so the mix of outcomes need not match the whole.

CC(C)c1c(CN(C)C(C)Cc2ccccc2)n(C)n(-c2ccccc2)c1=O (stereo not drawn)
  HCMV NEC inh = -19.2

C[C@]12CCC(=O)CC1CCC1C2CC[C@@]2(C)C1CC[C@]2(C)O (stereo partly drawn)
  HCMV NEC inh = -47.7

CCCCCCCC/C=C\CCCCCCCC(=O)OC[C@@H](COP(O)(O)=S)OC
  HCMV NEC inh = -17.2&-17.2

CCCCC/C=C\C/C=C\C/C=C\C/C=C\CCCC(=O)Nc1ccc2c(C)cc(=O)oc2c1
  HCMV NEC inh = -18.4&-18.4

COc1cccc2ncn(Cc3cn4ccccc4n3)c(=O)c12
  HCMV NEC inh = 44.1&44.1

O=[N+]([O-])C=Cc1ccc2c(c1)OCO2
  HCMV NEC inh = -8.0

CCCCC1(C2CCCC2)Cc2cc(OCCCC(=O)O)c(Cl)c(Cl)c2C1=O (stereo not drawn)
  HCMV NEC inh = -28.0

Cc1ccc(C(C)Nc2ncnc3sccc23)cn1 (stereo not drawn)
  HCMV NEC inh = -5.4&-5.4

Cc1cc(N2CCN(C)CC2)ncn1
  HCMV NEC inh = -5.8

Nc1ccccc1C(=O)c1ccccc1
  HCMV NEC inh = -31.8

O=C(Cc1cccc2ccccc12)N1CCN(Cc2ccccc2)CC1
  HCMV NEC inh = -17.0

OCC(O)[C@H]1O[C@@H]2O[C@H](C(Cl)(Cl)Cl)O[C@@H]2[C@H]1O (stereo partly drawn)
  HCMV NEC inh = -8.4

O=C1C=CC(=O)c2c(O)cccc21
  HCMV NEC inh = -48.8

CN1CC[C@]2(c3cccc(O)c3)Cc3nc4ccccc4cc3CC2C1 (stereo partly drawn)
  HCMV NEC inh = 34.7

CCCCCC(/C=C/C=O)OO (stereo not drawn)
  HCMV NEC inh = 16.6&16.6

O=C1CSC(c2ccccc2Cl)c2cc(Cl)ccc2N1 (stereo not drawn)
  HCMV NEC inh = -6.1&-3.6

C=C1C[C@@H]2[C@@H](CC[C@@]3(C)C(=O)CC[C@@H]23)[C@@]2(C)C=CC(=O)C=C12
  HCMV NEC inh = -16.1

C=C(C)[C@@H]1CCC(C)=C[C@H]1C1=C(O)C(=O)C(CCCCC)=CC1=O
  HCMV NEC inh = -9.9&-9.9

CC(=O)Nc1ccc(OC[C@](C)(O)C(=O)Nc2ccc([N+](=O)[O-])c(C(F)(F)F)c2)cc1
  HCMV NEC inh = -57.6

Cc1c(N)nc(C(CC(N)=O)NCC(N)C(N)=O)nc1C(=O)NC(C(=O)NC(C)C(O)C(C)C(=O)NC(C(=O)NCCc1nc(-c2nc(C(=O)NCCC[S+](C)C)cs2)cs1)C(C)O)C(OC1OC(CO)C(O)C(O)[C@H]1OC1OC(CO)C(O)C(OC(N)=O)C1O)c1cnc[nH]1 (stereo partly drawn)
  HCMV NEC inh = -11.9

O=C(O)c1ccccc1C(=O)Nc1cccc2ccccc12
  HCMV NEC inh = -17.7

C[C@]12CCC(=O)C(O)=C1CC[C@@H]1[C@H]2CC[C@]2(C)C(=O)CC[C@@H]12
  HCMV NEC inh = -15.1

COc1cc2c(c(OC)c1OC)-c1ccc(O)c(=O)cc1[C@@H](N)CC2
  HCMV NEC inh = -33.6

CN(C)C(C#N)c1c[nH]c2ccccc12 (stereo not drawn)
  HCMV NEC inh = 2.9

C[C@]12CC3SC3C[C@@H]1CC[C@@H]1[C@@H]2CC[C@]2(C)[C@@H](O)CC[C@@H]12 (stereo partly drawn)
  HCMV NEC inh = -25.4

Cc1cc(OCC(N)=O)c2c3c(c(=O)oc2c1)CCCC3
  HCMV NEC inh = -9.6

C[C@](O)(COc1ccc(C#N)cc1)C(=O)Nc1ccc(C#N)c(C(F)(F)F)c1
  HCMV NEC inh = -4.4

CC1CC[C@H]2C(C)C(=O)O[C@@H]3O[C@@]4(C)CC[C@@H]1[C@]32OO4 (stereo partly drawn)
  HCMV NEC inh = -17.6

O=Cc1cn(Cc2ccc(Cl)cc2)c2ccccc12
  HCMV NEC inh = -8.1

O=S(=O)(c1c(O)c(Cl)cc(Cl)c1Cl)c1c(O)c(Cl)cc(Cl)c1Cl
  HCMV NEC inh = -16.2

Nothing new here: an excerpt of the list.
O=C1CSC(c2ccccc2Cl)c2cc(Cl)ccc2N1 (stereo not drawn)
  HCMV NEC inh = -6.1&-3.6

C=C1C[C@@H]2[C@@H](CC[C@@]3(C)C(=O)CC[C@@H]23)[C@@]2(C)C=CC(=O)C=C12
  HCMV NEC inh = -16.1

Going on with the list.
COC(C/C=C/C=C/CC/C=C\CC(C)/C=C\C(=C/C(=O)O)CC(=O)O)/C(C)=C\C=C(/C)C(=O)O (stereo not drawn)
  HCMV NEC inh = -17.8

C[C@@H]1O[C@@H](O[C@@H]2C[C@@H](O)[C@]3(CO)[C@H]4[C@H](O)C[C@]5(C)[C@@H](C6=CC(=O)OC6)CC[C@]5(O)[C@@H]4CC[C@]3(O)C2)[C@H](O)[C@H](O)[C@H]1O
  HCMV NEC inh = -8.4

CC(C)N(CCNC(=O)CN1CCCC1=O)C(C)C
  HCMV NEC inh = -4.6

CC(C(=O)OC1CC2CCC(C1)N2C)c1ccc(Br)cc1 (stereo not drawn)
  HCMV NEC inh = 2.3

COc1ccc(CN2CCNCC2)c(OC)c1OC
  HCMV NEC inh = -4.9

O=C(O)/C=C/CO
  HCMV NEC inh = -2.9

Oc1ccc2c3c1OC1c4[nH]c5ccccc5c4C[C@@]4(O)C(C2)N(CC2CC2)CC[C@]314 (stereo partly drawn)
  HCMV NEC inh = -88.1

CCOc1ccccc1-n1c(C(C)N2CCN(C(=O)COc3ccc(Cl)cc3)CC2)nc2ccccc2c1=O (stereo not drawn)
  HCMV NEC inh = -6.7

c1csc(C2NCCc3[nH]cnc32)c1 (stereo not drawn)
  HCMV NEC inh = 0.1

CCCCC/C=C\C/C=C\C/C=C\C/C=C\CCCC(=O)NC1CC1
  HCMV NEC inh = -1.6&-1.6

CN1C[C@H](CO)C=C2c3cccc4[nH]cc(c34)C[C@H]21
  HCMV NEC inh = -32.4

CCC(C(N)=O)N1CCCC1=O (stereo not drawn)
  HCMV NEC inh = -61.6

Cc1[nH]c2ccccc2c1CCNCc1cccs1
  HCMV NEC inh = 0.4

CC(C)c1ccc(O)c(CN2CCN(c3ccccc3)CC2)c1
  HCMV NEC inh = -19.3

CC(C)C1C(C#N)=C(N)Oc2c1c(=O)oc1ccccc21 (stereo not drawn)
  HCMV NEC inh = -11.1

Quoted at random: 7 compounds from above.
CCOc1ccccc1-n1c(C(C)N2CCN(C(=O)COc3ccc(Cl)cc3)CC2)nc2ccccc2c1=O (stereo not drawn)
  HCMV NEC inh = -6.7

c1csc(C2NCCc3[nH]cnc32)c1 (stereo not drawn)
  HCMV NEC inh = 0.1

CC(C)C1C(C#N)=C(N)Oc2c1c(=O)oc1ccccc21 (stereo not drawn)
  HCMV NEC inh = -11.1

CN1C[C@H](CO)C=C2c3cccc4[nH]cc(c34)C[C@H]21
  HCMV NEC inh = -32.4

CCC(C(N)=O)N1CCCC1=O (stereo not drawn)
  HCMV NEC inh = -61.6

CC(C)c1ccc(O)c(CN2CCN(c3ccccc3)CC2)c1
  HCMV NEC inh = -19.3

C[C@@H]1O[C@@H](O[C@@H]2C[C@@H](O)[C@]3(CO)[C@H]4[C@H](O)C[C@]5(C)[C@@H](C6=CC(=O)OC6)CC[C@]5(O)[C@@H]4CC[C@]3(O)C2)[C@H](O)[C@H](O)[C@H]1O
  HCMV NEC inh = -8.4

(more compounds)
SMILES,HCMV NEC inh
Cc1[nH]c2ccccc2c1CCNCc1ccncc1,2.6
CCCCC/C=C\C/C=C\C/C=C\C/C=C\CCCC(=O)N[C@@H](C)CO,-14.2&-14.2
COC(=O)/C=C/C(=O)N[C@@H]1CC[C@@]2(O)[C@H]3Cc4ccc(O)c5c4[C@@]2(CCN3CC2CC2)[C@H]1O5,-5.7
CN1CCC(c2ccc(F)cc2)C(COc2ccc3c(c2)OCO3)C1 (stereo not drawn),-79.8
CCOC(=O)c1ncc2[nH]c3ccc(OCc4ccccc4)cc3c2c1COC,8.4
Clc1ccc(CCC(Cn2ccnc2)Sc2c(Cl)cccc2Cl)cc1 (stereo not drawn),6.9&3.4&-3.4
O=[N+]([O-])c1ccc([As](=O)(O)O)cc1,-76.6
C=CCN1C[C@H](C)N([C@H](c2ccc(C(=O)N(CC)CC)cc2)c2cccc(O)c2)C[C@H]1C,2.5
N#CC1=C(N)Oc2c(c(=O)oc3ccccc23)C1C1CCCCC1 (stereo not drawn),-7.0
CC1=NCCc2c1[nH]c1cc(O)ccc21,-81.8
CC(C)(C)c1cc(C=C(C#N)C#N)cc(Br)c1O,4.1&-18.3
CCN1C[C@]2(OC(=O)c3ccccc3NC(C)=O)CCC(OC)[C@]34C1C(C[C@H]23)[C@@]1(O)CC(OC)[C@H]2C[C@H]4[C@]1(O)C2OC (stereo partly drawn),-22.8
CCCOC1CCCN(C2CCN(C)CC2)C1 (stereo not drawn),1.6
CC(C)C[C@H]1C(=O)N2CCC[C@H]2[C@]2(O)O[C@](NC(=O)[C@@H]3C=C4c5cccc6[nH]cc(c56)C[C@H]4N(C)C3)(C(C)C)C(=O)N12,-13.0
NCc1cccnc1,-1.0
CCOC(=O)c1ncn2c1CN(C)C(=O)c1cc(N=[N+]=[N-])ccc1-2,2.3
CC1CNCCc2ccc(Cl)cc21 (stereo not drawn),2.1
O=c1[nH]c2ccc(Cl)cc2c(NC2CN3CCC2CC3)c1-c1nc2ccccc2[nH]1 (stereo not drawn),-27.7
OOCCC/C=C/c1ccccc1,-15.7&-15.7
C=C(C)[C@@H]1CCC(C)=C[C@H]1c1c(OC)cc(CCCCC)cc1OC,-13.8&-13.8
C[C@]12CCC(O)CC1=CCC1C2CC[C@@]2(C)C1CC[C@]2(C)O (stereo partly drawn),-78.7
C=CC(C)(C)c1cc2cc3c(cc2oc1=O)OC(C(C)(C)O)C3 (stereo not drawn),-40.9
Cc1cc(OC(C)C(=O)O)c2c3c(c(=O)oc2c1)CCCC3 (stereo not drawn),-11.2
Cc1cc(C)cc(OCC(=O)N2CCN(Cc3ccccc3)CC2)c1,4.4
CCNC1(c2cccs2)CCCCC1=O (stereo not drawn),-14.4

Entries shown so far that have an aryl methoxy group, in the order listed:
SMILES,HCMV NEC inh
COc1cccc2ncn(Cc3cn4ccccc4n3)c(=O)c12,44.1&44.1
COc1cc2c(c(OC)c1OC)-c1ccc(O)c(=O)cc1[C@@H](N)CC2,-33.6
COc1ccc(CN2CCNCC2)c(OC)c1OC,-4.9
C=C(C)[C@@H]1CCC(C)=C[C@H]1c1c(OC)cc(CCCCC)cc1OC,-13.8&-13.8

More results:
SMILES,HCMV NEC inh
CCCCCCCCCC(=O)OC[C@H](COP(=O)([O-])OCC[N+](C)(C)C)OC(=O)CCCCCCCCC,-11.4&-11.4
C[C@]12Cc3cn[nH]c3CC1CCC1C2CC[C@@]2(C)C1CC[C@]2(C)O (stereo partly drawn),-37.0
NS(=O)(=O)c1ccc(-c2ccc(C=C3C(=O)NC(=O)NC3=O)o2)cc1,-26.5
CCCCC[C@@H](/C=C/C=C\C/C=C\C/C=C\CCCC(=O)O)OO,-2.8
CCC(=O)OC(Cc1ccccc1)(c1ccccc1)C(C)CN(C)C (stereo not drawn),-31.9
CN1CCc2cc3c(cc2[C@H]1[C@@H]1OC(=O)c2c1ccc1c2OCO1)OCO3,-3.3&-9.6&-11.3
CC(C)N1C(=O)CCC1C(=O)N1CCC2(CC1)OCCO2 (stereo not drawn),-15.3
CC(=O)OCC1=C(C(=O)O)N2C(=O)[C@@H](N)[C@H]2SC1,-22.9
CN1C2CCCC1CC(=O)C2,-17.5
COC1=CC(=O)OC(/C=C/c2ccccc2)C1 (stereo not drawn),-7.5
C[C@H]1C(=O)O[C@@H]2CCN3CC=C(COC(=O)[C@](C)(O)[C@]1(C)O)[C@H]23,-19.0
CCCCC/C=C\C/C=C\C/C=C\C/C=C\CCCC(=O)NCC(O)CC(=O)O (stereo not drawn),-5.2&-5.2
COC1=C[C@@H]2C3Cc4ccc(OC)c(O)c4[C@]2(CCN3C)CC1=O,-2.4
C[C@H]1O[C@@H](OC2CC[C@]3(C=O)[C@H]4CC[C@]5(C)[C@@H](C6=CC(=O)OC6)CC[C@]5(O)[C@@H]4CC[C@]3(O)C2)C[C@H](O)[C@@H]1O (stereo partly drawn),-4.8
O=P1(Nc2ccc(Br)cc2)CC=CC1,-5.7
CCCN1CCO[C@@H]2c3cc(O)ccc3OC[C@@H]21,-20.7
Clc1ccc(CN2CCCCC2)cn1,-8.9
c1ccc(CN2CCN(Cc3ccccc3)CC2)cc1,14.3
CCNC(=O)[C@H]1O[C@@H](n2cnc3c(N)ncnc32)[C@H](O)[C@@H]1O,-0.2
O=C1NC(=O)C(=Cc2ccc(-c3ccc(F)cc3O)o2)C(=O)N1,-13.2
C=C[C@H]1CN2CC[C@H]1C[C@@H]2[C@@H](O)c1ccnc2ccccc12,-13.4
CC(C)(c1ccc(OCC2CO2)cc1)c1ccc(OCC2CO2)cc1 (stereo not drawn),-1.0&-13.6&-13.6&-12.9
Oc1ccc2c3c1O[C@H]1c4c(c5ccccc5n4Cc4ccccc4)C[C@@]4(O)C(C2)N(CC2CC2)CC[C@]314,-8.2
CC(C)[C@]12OC1C1O[C@]13[C@]1(OC1CC1C4=C(CC[C@@]13C)C(=O)OC4)C2O (stereo partly drawn),-61.8
CCc1cc2c(s1)-n1c(C)nnc1CN=C2c1ccccc1Cl,-9.6

A draw from above in order of heavy-atom count, rising.
SMILES,HCMV NEC inh
CN1C2CCCC1CC(=O)C2,-17.5
Clc1ccc(CN2CCCCC2)cn1,-8.9
O=C1NC(=O)C(=Cc2ccc(-c3ccc(F)cc3O)o2)C(=O)N1,-13.2
COC1=C[C@@H]2C3Cc4ccc(OC)c(O)c4[C@]2(CCN3C)CC1=O,-2.4
CC(C)[C@]12OC1C1O[C@]13[C@]1(OC1CC1C4=C(CC[C@@]13C)C(=O)OC4)C2O (stereo partly drawn),-61.8
C[C@H]1O[C@@H](OC2CC[C@]3(C=O)[C@H]4CC[C@]5(C)[C@@H](C6=CC(=O)OC6)CC[C@]5(O)[C@@H]4CC[C@]3(O)C2)C[C@H](O)[C@@H]1O (stereo partly drawn),-4.8

Compound activity: PubChem, ICCB-Longwood Screening Facility, Harvard Medical School
